Source: PubChem (ICCB-Longwood Screening Facility, Harvard Medical School)
fixLJ activator – activators of Burkholderia fixLJ two-component system, primary screen, B. multivorans, GFP reporter. B. multivorans fixK-promoter GFP reporter, 18 h; stronger effect = higher value. z-score (test concentration not listed). hit rate 0.3% among 29,000. AID 1918990, 2023;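 active = replicate mean overnight rise in green fluorescent reporter signal, 3 or more SD over negative controls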;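 note: score is relative to vehicle wells of the plate; 300 nL library stock went into each well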
* = called active by the depositor. The list is partial; the hit share may differ from the screen's.

SMILES	fixLJ activator
COc1ccc(C(=O)Nc2cc(-c3nc4ncccc4o3)ccc2C)cc1Br	-1.5
Cc1ccc(-n2c(=O)[nH]c3cc(C(=O)NCCc4ccccc4)ccc3c2=O)cc1	-0.91
Cc1ccc(-c2n[nH]c3c2C(c2cccs2)N(c2ccc(Cl)cc2)C3=O)cc1 (stereo not drawn)	1.66
CC(=O)Nc1ccc(S(=O)(=O)Nc2ccc([N+](=O)[O-])cc2)cc1	-0.95
CC(=O)c1cc(CC(=O)N2CCCC(c3ccn[nH]3)C2)cs1 (stereo not drawn)	-0.17
CN(CCCNC(=O)c1cc2c(Cl)nc3ccccc3c2s1)Cc1ccccc1	-2.6
Cc1cc(N2CC(O)C(Cc3ccnc4ccccc34)C2)nc(N2CCOCC2)n1 (stereo not drawn)	-0.64
Cc1ccc(C(=O)N/C(=C\c2ccc(Cl)cc2)C(=O)NC2CCCCC2)cc1	-0.82
Cc1ccc(-c2nn(CCC(=O)Nc3ccc(OC(F)(F)F)cc3)c(=O)c3ccccc23)cc1	-1.18
CCOc1ccc(-n2c(=O)c3c(C)c(C)sc3n(Cc3cc(=O)n4cc(Cl)ccc4n3)c2=O)cc1	-2.03
CCCCS(=O)(=O)c1oc(-c2ccc(F)cc2)nc1S(=O)(=O)c1ccccc1	-0.41
CCOc1ccc(/C=C/c2nc3ccccc3n2S(=O)(=O)c2ccc(Br)cc2)cc1	-1.4
CCOC(=O)c1c(NC(=O)CCCOc2ccc(C)cc2)sc2c1CCC(C)C2 (stereo not drawn)	-0.08
Cc1ccc(-c2cc(C(F)(F)F)n3ncc(-c4ccccc4)c3n2)cc1	0.44
NC(=O)N/N=C/c1ccc([N+](=O)[O-])o1	-0.72
O=C(CCC1N=C2c3ccccc3N=C(SCc3ccc(Cl)cc3)N2C1=O)NCCc1ccccc1 (stereo not drawn)	-1.1
CC[C@]1(O)C[C@H]2CN(CCc3c([nH]c4ccccc34)[C@@](C(=O)OC)(c3cc4c(cc3OC)N(C)[C@H]3[C@@](O)(C(N)=O)[C@H](O)[C@]5(CC)C=CCN6CC[C@]43[C@@H]65)C2)C1	-1.33
COc1ccc(CCNC(=O)CN(Cc2nccn2C)C(C)C)cc1	-1.2
Cc1ccc2oc(-c3cccc(NC(=O)c4ccc(N5CCC(C)CC5)c([N+](=O)[O-])c4)c3)nc2c1	-0.62
CC(NC(=O)Nc1cn(C(C)C)nn1)c1nc(-c2cccnc2)no1 (stereo not drawn)	-0.79
Nc1c(-c2nc(-c3ccccc3)cs2)c2ccccn2c1C(=O)c1ccc2c(c1)OCO2	-1.87
Cc1ccc(CNC(=O)Cn2c(=O)n(-c3ccc(C)c(F)c3)c(=O)c3sc4ccccc4c32)cc1	-1.03
COc1cccc(C2C(C(=O)Nc3ccc(Cl)cc3)=C(C)Nc3nc4ccccc4n32)c1OC (stereo not drawn)	0.02
CCCS(=O)(=O)c1nc(S(=O)(=O)c2ccc(C)cc2)c(NCc2ccccc2Cl)s1	2.24

3 compounds drawn at random from the list so far:
SMILES	fixLJ activator
COc1cccc(C2C(C(=O)Nc3ccc(Cl)cc3)=C(C)Nc3nc4ccccc4n32)c1OC (stereo not drawn)	0.02
Cc1ccc(-c2cc(C(F)(F)F)n3ncc(-c4ccccc4)c3n2)cc1	0.44
NC(=O)N/N=C/c1ccc([N+](=O)[O-])o1	-0.72

(continued)
SMILES	fixLJ activator
Cn1c(Cn2cccn2)nnc1C1CCN(CCC2CCCCC2)CC1	0.52
Cn1nnnc1SCCNCc1ccc(Cl)c(Cl)c1	-2.02
CCOc1ccc(C(=O)/C=C/c2cn(CC(O)CN3CCc4ccccc43)c3ccccc23)cc1 (stereo not drawn)	-0.26
CC(C)c1ccccc1NC(=O)CSc1nnc(COc2ccccc2)o1	-0.89
CCOC(=O)c1c(C)c(-c2ccccc2)n(CC(=O)Nc2cc(C)cc(C)c2)c1C	0.3
CCOC(=O)c1c(NC(=O)C(C)Oc2ccccc2F)sc(C(C)=O)c1C (stereo not drawn)	-2.54
COc1ccc(CCNC(=O)Cn2c(-c3cccs3)cc3cc(F)ccc32)cc1OC	-0.68
Cn1cccc1C(=O)N1CCN(C(=O)c2ccccn2)C2CS(=O)(=O)CC21 (stereo not drawn)	0.45
CN(C)CC(O)c1cc2n(n1)CCCN(C(=O)CCc1cccnc1)C2 (stereo not drawn)	-1.75
Cc1ccc(C(=O)N2CCC3(CCC(=O)N(C(C)C(=O)O)C3)CC2)cc1 (stereo not drawn)	0.29
Cc1ccccc1C(=O)c1cccn1CC(=O)NCc1ccc(Cl)cc1	-1.35
Cc1cccc(C(=O)N2CCC3(CC2)CN(C(=O)C2CCCO2)CCO3)n1 (stereo not drawn)	0.58
COc1ccc(N(C)C(=O)c2cn(C3CCCCC3)c(=O)c3c2c2ccccc2n3C)cc1	-0.64
CC1=C(C(=O)Nc2ccccc2)C(c2ccccn2)n2nc(SCc3ccccc3)nc2N1 (stereo not drawn)	-0.89
CC(C)n1cnnc1CNC(=O)N(CC=Cc1ccccc1)CC1CCCO1 (stereo not drawn)	0.75
Cn1c(=O)c2c(nc(NCCc3ccccc3)n2Cc2ccc(Cl)cc2)n(C)c1=O	-1.17
O=C(NCCNCC(O)COc1ccc(O)cc1)N1CCOCC1 (stereo not drawn)	-1.17
CCOC(=O)C1=C(CS(=O)(=O)c2ccc(C)cc2)NC(=O)NC1c1ccc(C(C)C)cc1 (stereo not drawn)	-1.5
O=C(NCc1nc(Cc2ccccc2)no1)c1cc(-c2ccccc2O)n[nH]1	-0.99
CN1C(=O)[C@H]2COC[C@@H]1CN(C(=O)CCc1nc(-c3ccccc3)no1)C2	0.09
CCC(NC(=O)c1ccc(-n2cnnn2)cc1O)c1cnn(C)c1 (stereo not drawn)	0.27
COc1ccc(N2C(=O)NC(NS(=O)(=O)c3ccc(Cl)cc3)(C(F)(F)F)C2=O)cc1 (stereo not drawn)	-0.34
CCc1cccc(C)c1NC(=O)c1cc2ccccc2o1	0.26
CCCCN(C)C(=O)c1ccc2c(c1)N(Cc1ccc(F)cc1)C(=O)c1ccccc1S2(=O)=O	1.6
CC(C)n1cnnc1CCNC(=O)NCCNC(=O)c1ccccc1Cl	0.4
COc1cccc(NS(=O)(=O)c2ccc3c(c2)[C@H]2C=CC[C@H]2[C@@H](c2ccccc2Cl)N3)c1	0.34
CC(=O)c1ccc(N2CCN(c3nc4c(S(=O)(=O)c5ccc(C)c(C)c5)nnn4c4ccc(Cl)cc34)CC2)cc1	-0.58
O=c1c2sc3ccccc3c2n(Cc2cccc(C(F)(F)F)c2)c(=O)n1Cc1ccc(F)cc1	1.95
CN(C)S(=O)(=O)CC1CN(C(=O)Cc2ccc(Cl)c(Cl)c2)CC1O (stereo not drawn)	-2.65
O=C(O)c1ccc(-n2c(/C=C\c3ccc(O)cc3)nc3ccccc3c2=O)cc1	-1.05
O=C(NCCc1ccccc1)c1ccc2c(c1)N(Cc1c(F)cccc1Cl)C(=O)CS2	-0.34
Cc1ccc(Cl)cc1NC(=O)C1CCCN(c2cnccn2)C1 (stereo not drawn)	-1.12
COc1ccc(-c2nc(CN3CCS(=O)(=O)CC3)c(C)o2)c(OC)c1C	-0.93
Cc1cc(Br)ccc1NC(=O)Cn1cnc2sc(C)c(S(=O)(=O)N3CCN(C)CC3)c2c1=O	0.2
COc1ccc(-c2cc3nc(C)c(CCC(=O)NC(C)c4ccccc4)c(C)n3n2)c(OC)c1 (stereo not drawn)	-0.93
CCc1cnc(C)nc1NCC1(O)C2CC3CC(C2)CC1C3 (stereo not drawn)	-2.02
Cc1ccc2[nH]c(CN3CCNC(=O)C3c3ccc(F)cc3)nc2c1C (stereo not drawn)	1.03
O=C(Nc1ccc2nn(-c3ccc(Cl)cc3)nc2c1)c1cc2ccccc2o1	-1.54
Cc1cc(C(=O)N2CCC3(CC2)c2nc[nH]c2CCN3C(=O)C2CC2)on1	1.08
COc1ccc(CNC(=O)c2ccc3c(c2)N=C(C)c2c(C)ccc(C)c2S3)cc1	0.42
Cc1cc(Br)ccc1NC(=O)CCS(=O)(=O)c1cccc2nsnc12	0.83
Cc1ccc2c(c1)c(CC(=O)Nc1ccc(C)c(F)c1)c(C(=O)O)n2C	-0.15
COC(=O)c1ccccc1NC(=O)Cn1c(=O)n(CCC(=O)NCc2ccc3c(c2)OCO3)c(=O)c2ccccc21	-1.59
COc1cccc(N2CCN(C(=O)C3CCCN(S(=O)(=O)c4ccc(Br)s4)C3)CC2)c1 (stereo not drawn)	0.84
CCOc1ccc(-c2cc(CCCC(=O)NCCc3cc(OC)c(OC)c(OC)c3)no2)cc1	-1.56
Cc1nn(C)c(C(=O)NC2COCC2Cc2ccncc2)c1Cl (stereo not drawn)	0.24
COc1ccccc1C(=O)Oc1c(Sc2ccccc2)c(C)nn1C(C)(C)C	0.48
O=C1CN(C(=O)c2ccc(S(=O)(=O)N3CCCCC3)cc2)C(c2ccc(F)cc2)c2cc(F)ccc2N1 (stereo not drawn)	-0.5
O=C(C1CCN(S(=O)(=O)c2ccc(Br)s2)CC1)N1CCN(c2ccccc2)CC1	-0.12
O=C1CN(C(=O)COc2ccc(Cl)cc2Cl)C(c2ccccc2)c2cc(F)ccc2N1 (stereo not drawn)	2.86
COc1ccc2c(c1)Cc1sc(NC(=O)c3ccccc3C)nc1-2	0.14
NC(=O)c1ccc[n+]([C@@H]2O[C@H](COP(=O)([O-])OP(=O)(O)OC[C@H]3O[C@@H](n4cnc5c(N)ncnc54)[C@H](O)[C@@H]3O)[C@@H](O)[C@H]2O)c1	-1.12
COc1ccc(OCCn2c(NC(=O)c3ccc(OC)cc3)nc3ccccc32)cc1	-2.19
Cc1ccc(CSc2oc(-c3ccco3)nc2S(=O)(=O)c2ccc(Cl)cc2)cc1	0.93
COc1ccc(-c2cc3nc(C)c(CCC(=O)Nc4ccccc4C(C)=O)c(C)n3n2)c(OC)c1	0.3
COc1ccccc1CNC(=O)CCC1N=C2c3ccccc3N=C(SCc3cccc(Cl)c3)N2C1=O (stereo not drawn)	-0.78
CCC(=O)OC(OP(=O)(CCCCc1ccccc1)CC(=O)N1C[C@H](C2CCCCC2)C[C@H]1C(=O)O)C(C)C (stereo partly drawn)	-0.03
O=C(CCc1cccc(Cl)c1)N1CC2COC[C@]2(C(=O)N2CCOCC2)C1 (stereo partly drawn)	-0.95
COc1ccc(Cl)cc1NC(=O)c1cc2nc(-c3ccc(C)cc3)cc(C(F)(F)F)n2n1	-0.69
CCc1ccc(CCNc2nc(N(C)C)nc3c2CCN(C(C)=O)C3)cc1	0.42

A different layout for some results above:
> COc1ccc(CCNC(=O)CN(Cc2nccn2C)C(C)C)cc1
  fixLJ activator = -1.2
> Cc1ccc2oc(-c3cccc(NC(=O)c4ccc(N5CCC(C)CC5)c([N+](=O)[O-])c4)c3)nc2c1
  fixLJ activator = -0.62

The list goes on.
SMILES	fixLJ activator
CCn1c(CN(C)CCN2CCC(C)CC2)nnc1C1CC(N)C1 (stereo not drawn)	-1.17
COc1ccc(Cl)cc1CN(C)C(=O)NCC1(Cn2cccn2)CC1	1.11
CCn1cc(CN(C)C(=O)c2cccc(-c3nc(OC)n(C)n3)c2)cn1	0.15
Cc1nc(CC(=O)N2CCCN(C(=O)CCn3cnnc3)CC2)cs1	-0.96
Cc1cccc(CNC(=O)c2ccc(NC(=O)N3CC(C)Sc4ccccc43)cc2)c1 (stereo not drawn)	-0.14

An excerpt from above in order of SMILES length, high to low:
SMILES	fixLJ activator
COc1cccc(N2CCN(C(=O)C3CCCN(S(=O)(=O)c4ccc(Br)s4)C3)CC2)c1 (stereo not drawn)	0.84
CCn1c(CN(C)CCN2CCC(C)CC2)nnc1C1CC(N)C1 (stereo not drawn)	-1.17
Cc1ccc(Cl)cc1NC(=O)C1CCCN(c2cnccn2)C1 (stereo not drawn)	-1.12
